Screens from PubChem.
Bead autofluor: flagged as autofluorescent in microsphere protease counterscreen; compound autofluorescence counterscreen, microsphere flow cytometry; stronger effect = higher value; fluorescence intensity (concentration not given with the values); hit rate 3.1% among 360,000;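 active = at least 3 SD above the mean of all compounds, about 16000 in these data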;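 also: 100 nL of 1 mM stock went into each well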
Numbers without * were called inactive. Only part of the results is shown; count on the stated rates, not on these rows.

SMILES | Bead autofluor
Cc1cccc(C(=O)N2CCC(=O)N([C@H](COCc3ccccc3)Cc3ccccc3)CC2)c1 | 4260
COc1cccc(COC(=O)C2CC(=O)N(Cc3ccccc3)C2)c1OC (stereo unspecified) | 2925
CCOC(=O)c1cc2cc(OC)ccc2n1C1CCN(C)CC1 | 5154
COc1cccc(S(=O)(=O)Nc2ccc(C(O)(C(F)(F)F)C(F)(F)F)cc2)c1 | 3593
COCCNC(=O)C1(C)Cc2c(-c3ccc(N(C)C)cc3)ccnc2O1 (stereo unspecified) | 3705
CCNC(=O)C1(C)CCN(C(=O)c2cccc(C#N)c2)C1 (stereo unspecified) | 3128
CC(O)(c1ccc(F)c(F)c1)c1nc(-c2ccccc2)cs1 (stereo unspecified) | 3547
Cc1cc(C)n2c(NC3CCCC3)c(-c3ccc(F)cc3)nc2n1 | 4955
COC(=O)c1ccc2cc(C)cc(C)c2n1 | 5597
CCN1CCN(c2sc(S(=O)(=O)CC)nc2S(=O)(=O)c2ccc(Cl)cc2)CC1 | 3671
Cc1ccc(NC(=O)C2(C)CCN2C(=O)CCC2CCCC2)cc1C (stereo unspecified) | 3638
Cc1cc(NC(=O)c2csc([C@@H]3O[C@H](CO)[C@H](O)[C@H](O)[C@H]3O)n2)n(C)n1 | 3626
COc1ccc(-c2cnc3c(NC(C)=O)cc(-c4cccc(NS(C)(=O)=O)c4)cn23)cc1OC | 4163
C[C@@H]1CN([C@H](C)CO)C(=O)c2c(c3ccccc3n2C)-c2ccccc2CO[C@H]1CN(C)S(=O)(=O)c1cn(C)cn1 | 3759
O=C(NCc1ccccc1CN1CCCC1)c1ccc(S(=O)(=O)Nc2ccccc2)cc1 | 2954

Brought forward from above: 4 entries, then new ones.
SMILES | Bead autofluor
Cc1cc(NC(=O)c2csc([C@@H]3O[C@H](CO)[C@H](O)[C@H](O)[C@H]3O)n2)n(C)n1 | 3626
COc1ccc(-c2cnc3c(NC(C)=O)cc(-c4cccc(NS(C)(=O)=O)c4)cn23)cc1OC | 4163
C[C@@H]1CN([C@H](C)CO)C(=O)c2c(c3ccccc3n2C)-c2ccccc2CO[C@H]1CN(C)S(=O)(=O)c1cn(C)cn1 | 3759
O=C(NCc1ccccc1CN1CCCC1)c1ccc(S(=O)(=O)Nc2ccccc2)cc1 | 2954
O=C(NCc1ccc(F)cc1)Nc1nnc([C@H]2C[C@H](O)[C@@H](CO)O2)s1 | 2992
COc1cccc(C(c2nnnn2-c2c(C)cccc2C)N2CCC(n3c(=O)[nH]c4ccccc43)CC2)c1OC (stereo unspecified) | 6201
CS(=O)(=O)N1Cc2cc(C(=O)NCC3CC3)nc(-c3cccc(-c4cccnc4)c3)c2[C@H]1CCO | 6108
COc1ccc(S(=O)(=O)N(C)C)cc1NC(=O)COC(=O)c1n[nH]c2ccccc12 | 3463
O=C(NC(=S)N1CC1)c1ccccc1 | 2957
O=C(Nc1cccc(OC(F)(F)F)c1)C1Cc2c(-c3ccc(Cl)cc3)ccnc2O1 (stereo unspecified) | 3139
O=c1c2ccccc2sn1-c1ccc(Cl)cc1Cl | 2911
Cc1cc(F)ccc1C(O)c1ncc(-c2ccccc2C(F)(F)F)[nH]1 (stereo unspecified) | 3679
Cn1c(=O)c2cc(NC(=O)Cc3ccccc3F)ccc2n1Cc1ccc(Cl)cc1 | 4167
CN(Cc1ccc(Cl)cc1)C(C(=O)NC1CCCCC1)c1cc2ccccc2o1 (stereo unspecified) | 4249
COCCN1C(=O)CCC1(C)C(=O)Nc1ccc2ccccc2c1 (stereo unspecified) | 5792
Nc1[nH]c(C(=O)c2ccccc2)c(-c2ccc(Br)cc2)c1C(=O)NC1CC1 | 4397
CC(=O)Nc1ccc(NC(=O)C2CCN(S(C)(=O)=O)CC2)cc1 | 3943
O=C(CN1CCN(C(=O)c2cc(C3CC3)nn2-c2ccccc2)CC1)Nc1ccc(F)cc1 | 2800
COc1ccc(NC(=O)C2(C)CCN2CC2CCCCC2)cc1OC (stereo unspecified) | 2953
Cn1ccc2c(-c3cccnc3)cc3c(c21)C1CCC3C1 (stereo unspecified) | 5938
Cc1ccc(-c2nc3c4ccccc4ccn3c2CC2CCCCC2)cc1 | 5151
Cc1cccc(C(=O)OCC(=O)NC(=O)NC2CCCCC2)c1 | 3677
CCNC(=O)C1(C)CCN(C(=O)c2c(F)cccc2F)C1 (stereo unspecified) | 4147
Cc1ccc(CN2CC(N3CCN(Cc4cccc(C)c4)CC3)CS2(=O)=O)cc1 (stereo unspecified) | 5721
COc1cc(CNc2ncnc3c2ncn3[C@H]2CN(Cc3ccc(Cl)cc3)C[C@@H](CO)O2)cc(OC)c1OC | 2798
Cc1cccc(CN2CCN(C3CN(Cc4cn(Cc5ccc(Cl)cc5)nn4)S(=O)(=O)C3)CC2)c1 (stereo unspecified) | 4912
CCNC(=O)C1(C)CCN(C(=O)c2ccc(OC(F)F)cc2)C1 (stereo unspecified) | 2836
CCNC(=O)C1(C)CCN(Cc2ccccc2-c2ccccc2)C1 (stereo unspecified) | 2902
COc1ccccc1CNc1nc(NCc2cccc(OC)c2OC)c2sccc2n1 | 3893
Cc1cccc(NC(=O)CCc2ccc(N3C(N)=NC(N)=NC3(C)C)cc2)c1 | 2953
O=C1CC2OCC=C3CN4CCC56c7ccccc7N1C5C2C3CC46O (stereo unspecified) | 4929
CC1=C(C(=O)N(C(C)C)C(C)C)CC(CC(=O)NCCCCc2ccccc2)C(=O)N1Cc1ccc(C(C)(C)C)cc1 (stereo unspecified) | 4295
CNC(C)C(=O)NC(C(=O)NC(C)C(=O)Nc1cccc2ccccc12)C(C)C (stereo unspecified) | 3620
COc1ccc(NC(=O)N(C)C[C@H]2OCCCC[C@@H](C)Oc3ccc(NC(=O)c4ccccc4)cc3C(=O)N([C@H](C)CO)C[C@@H]2C)cc1 | 3525

Taken from above.
Cn1ccc2c(-c3cccnc3)cc3c(c21)C1CCC3C1 (stereo unspecified) in Bead autofluor: 5938
COc1ccc(NC(=O)N(C)C[C@H]2OCCCC[C@@H](C)Oc3ccc(NC(=O)c4ccccc4)cc3C(=O)N([C@H](C)CO)C[C@@H]2C)cc1 in Bead autofluor: 3525
Cc1ccc(CN2CC(N3CCN(Cc4cccc(C)c4)CC3)CS2(=O)=O)cc1 (stereo unspecified) in Bead autofluor: 5721
Cc1cccc(NC(=O)CCc2ccc(N3C(N)=NC(N)=NC3(C)C)cc2)c1 in Bead autofluor: 2953
Cc1cccc(CN2CCN(C3CN(Cc4cn(Cc5ccc(Cl)cc5)nn4)S(=O)(=O)C3)CC2)c1 (stereo unspecified) in Bead autofluor: 4912
COc1ccccc1CNc1nc(NCc2cccc(OC)c2OC)c2sccc2n1 in Bead autofluor: 3893

Quoted at random: four records from the list, in no set order.
SMILES | Bead autofluor
Cc1cccc(C(=O)OCC(=O)NC(=O)NC2CCCCC2)c1 | 3677
Cc1ccc(-c2nc3c4ccccc4ccn3c2CC2CCCCC2)cc1 | 5151
Cc1ccc(CN2CC(N3CCN(Cc4cccc(C)c4)CC3)CS2(=O)=O)cc1 (stereo unspecified) | 5721
Cc1cccc(NC(=O)CCc2ccc(N3C(N)=NC(N)=NC3(C)C)cc2)c1 | 2953

Additional compounds.
SMILES | Bead autofluor
COCCc1ccc(OC2(C)CCN(Cc3cccc(OC)c3OC)C2)cc1 (stereo unspecified) | 3409
NC(c1csc(Nc2ccc(C(F)(F)F)cn2)n1)C1CCCCC1 (stereo unspecified) | 3968
CC(C)(C)OC(=O)N(CC1CCNCC1)C(=O)c1[nH]c(C(F)(F)F)nc1-c1ccccc1 | 6035
COc1ccc(C2=C(c3ccccc3)OC(OC)c3cc(F)ccc32)cn1 (stereo unspecified) | 4105
CCCCN(C(C)=O)c1c(CC)nc2ccc(C(=O)NCc3cccs3)cn12 | 3525
CN1CCN(c2cccc3c2S(=O)(=O)N[C@@H](Cc2ccccc2)CO3)CC1 | 5895
O=C(Nc1nccs1)c1cnc2sccn2c1=O | 2762
Cc1cc(C)nc(Nc2nc(C(N)Cc3ccccc3)cs2)n1 (stereo unspecified) | 2963
CC(OC(=O)/C=C/c1ccco1)C(=O)NC1CCCCC1 (stereo unspecified) | 4293
CCN1C(=O)[C@H]2[C@@H](c3ccc(C(F)(F)F)cc3)N[C@]3(CCCN(Cc4cccn4C)C3=O)[C@H]2C1=O | 3685
COc1ccccc1CNc1nc(NC(C)C)nc2cc(-c3ccccc3)sc12 | 3770
CCCCN(C)C(=O)c1sc(=O)n(Cc2ccc(Cl)c(Cl)c2)c1C | 4194
N#Cc1ccc(-c2cccc3nccn23)cc1 | 3366
CS(=O)(=O)c1cc(C(=O)O)cc(NCc2ccccc2)c1Oc1ccccc1 | 3639
CC(C)NC(=O)N(C)C[C@H]1OCCCC[C@H](C)Oc2ccc(NC(=O)NC3CCCCC3)cc2C(=O)N([C@H](C)CO)C[C@@H]1C | 3692
CNC[C@@H]1OCc2ccccc2-c2ccccc2C(=O)N([C@@H](C)CO)C[C@@H]1C | 3653
O=C(Nc1ccccc1Cl)c1cc(C2CCCCN2C(=O)CCc2ccccc2)on1 (stereo unspecified) | 4413
O=C(OCc1ccccc1)N1CCC2CC1c1ccc(N3CCN(Cc4ccc5c(c4)OCO5)CC3)cc12 (stereo unspecified) | 5495
CN1C(=O)N(CC(=O)c2ccc3c(c2)OCO3)C(=O)C12CCCCC2 | 3128
O=c1oc(=S)oc2c1[C@H](c1ccc(Cl)cc1)O[C@H](C1CC1)C2 | 5484
COc1ccc(-c2cc3c(o2)CCCC3OCCN2CCOCC2)cc1 (stereo unspecified) | 5387
CN1OC[C@@H]2CN(C(=O)c3ccco3)[C@H](c3ccc(-c4ccc(C#N)cc4)cc3)C[C@@H]21 | 3661
Cc1cc(C)cc(C(O)c2ncc(-c3ccccc3C)[nH]2)c1 (stereo unspecified) | 3419
COc1ccc2c(c1)C(CC(C)=O)N(c1ccc(-c3cnc(OC)nc3)cc1)C(c1ccsc1)=C2 (stereo unspecified) | 5796
CCOC(=O)c1ccc(-n2cnc(-c3ccc([N+](=O)[O-])cc3)c2)cc1 | 6105
Cc1cc(C(=O)N2CCC2(C)C(=O)Nc2ccc3[nH]ncc3c2)nn1C (stereo unspecified) | 3505
CC(C)Oc1ccc(F)cc1-c1cc(C(=O)N2CCc3ccccc3C2)[nH]n1 | 3543
CC1(C(=O)Nc2ccc3ccccc3c2)CCC(=O)N1CCOc1ccccc1 (stereo unspecified) | 4376
CC1(C(=O)NS(=O)(=O)c2cccc(OC(F)F)c2)CCN1C(=O)CC(c1ccccc1)c1ccccc1 (stereo unspecified) | 3448
CCOc1cc(CN2CCC(N3CCC(C(=O)NC4CC4)CC3)CC2)ccc1O | 3725
CC(=O)Nc1ccc(C(=O)N2CCCC(c3cc(C(=O)NCc4ccccc4)no3)C2)cc1 (stereo unspecified) | 3745
CCOC(=O)[C@]12CCC=C1N(Cc1ccc3c(c1)OCO3)C(=O)[C@H](CC(=O)NCCC(C)C)C2 | 6092
CC1=C(C(=O)N(C)C)CC(CC(=O)NCc2cccs2)C(=O)N1Cc1ccc(C(C)(C)C)cc1 (stereo unspecified) | 5886
Cc1ccc(F)cc1-c1nc(NCC2CC2)nc2ccsc12 | 3664
O=C(CN1CCN(S(=O)(=O)c2ccc(Br)s2)CC1)N1CCc2ccccc21 | 3175
CC1(C)CC(NC(=O)c2ccc(F)cc2)CC(C)(C)N1 | 4231
CC(C)CNC(=O)C1(C)CCCN1C(=O)CSc1ccccc1 (stereo unspecified) | 3517
c1ccc2c(c1)ncn2-c1cncnc1 | 5651
CC1=C(C(=O)N(C)C)CC(CC(=O)NC2CCCCC2)C(=O)N1Cc1ccccc1 (stereo unspecified) | 3628
COCCNC(=O)C1(C)CCCN(Cc2ccc3ccccc3c2Br)C1 (stereo unspecified) | 3856
CCC(=O)N1CCC1(C)C(=O)Nc1cccc(OC)c1OC (stereo unspecified) | 3984
CCCCNC(=O)C[C@@H]1C[C@@]2(C(=O)OCC)CCC=C2N(Cc2ccc(Cl)cc2Cl)C1=O | 4332
O=C(O)c1c(-c2ccccc2)cnc2ccccc12 | 3899
CC1(C(=O)NS(=O)(=O)c2ccc(Br)cc2)CCN1C(=O)Cc1cccs1 (stereo unspecified) | 4013
CC(C)NC(=O)C1(C)CCN1C(=O)c1cccn1C (stereo unspecified) | 3653
CC(=O)NCCNc1nc(NC(C)C)nc2cc(-c3ccccc3)sc12 | 3782
COCCCN1C(=O)C(CC(=O)NC(c2ccccc2)c2ccccc2)CC(C(=O)N(C)C)=C1C (stereo unspecified) | 3708
Cc1cccc(CN(C)C[C@@H]2OCc3cnnn3CCCC(=O)N([C@@H](C)CO)C[C@H]2C)c1 | 2903
C[C@@H](NC(=O)c1[nH]cnc1C(=O)Nc1ccccc1F)c1ccccc1 | 3339
COC(=O)c1ccc2nc(-c3ccc(Cl)cc3)c(Cc3ccc(OC)cc3C)n2c1 | 6582
COc1cccc(-c2cc(NC=O)c3ncc(-c4cccc(C(=O)NCCN(C)C)c4)n3c2)c1 | 3093
OC(c1cccc(Cl)c1)c1nc(-c2ccccc2)cs1 (stereo unspecified) | 3553
CN(CC(=O)Nc1ccc(F)cc1)C(=O)CN1C(=O)NC(CCc2ccccc2)C1=O (stereo unspecified) | 3723
CCc1nc2c(OCc3ccc(Cl)cc3Cl)cccn2c1N(C=O)Cc1ccc(OC)cc1 | 3964
CC(C)(C)c1ccc(OCCCC(=O)Nc2nnc(C3CC3)s2)cc1 | 3066
C/C(NCCc1ccc(O)cc1)=C1/CCOC1=O | 3495
Cc1cc(F)ccc1-c1cc(C(=O)NCc2ccco2)[nH]n1 | 4182
O=C1NC(Cc2ccc(O)cc2)c2nc3ccc(Br)cc3c(=O)n2-c2cc3ccccc3cc21 (stereo unspecified) | 3654
COCCNC(=S)N(C)[C@H]1C[C@H]2c3cc(-c4ccccc4)ccc3CCN2C(=O)[C@H]1[C@H](C)O | 3502
Cc1cc(NS(=O)(=O)c2ccc(NC(=O)c3ccc(Cl)nc3)cc2)nc(C)n1 | 2781

New compounds follow:
SMILES | Bead autofluor
COCCCN1C(=O)C(CC(=O)NCc2ccco2)CC(C(=O)N(C(C)C)C(C)C)=C1C (stereo unspecified) | 5808
COc1ccc(-c2noc(-c3csc([C@@H]4O[C@H](CO)[C@H](O)[C@H](O)[C@H]4O)n3)n2)cc1OC | 2903
COc1ccc([C@H]2C[C@@H](O)[C@H](n3cc(C4CC4)nn3)CN2Cc2cccs2)cc1 | 3533
Cc1ccsc1C(=O)OCC(=O)NC1CCCCC1 | 3860
CCCCN1C(=O)C(CC(=O)NC(c2ccccc2)c2ccccc2)CC(C(=O)N(CC)CC)=C1C (stereo unspecified) | 2937
